Compound activity as filed in PubChem.
rRNA inh HTS – inhibits bacterial ribosomal RNA function over humanized ribosomes; GFP signal change (wild-type ribosome), % (no concentration beside the values); AID 720706; 350,000 tested, 1.6% active; E. coli WT GFP vs humanized-ribosome RFP mutants, fluorescence, 24 h; active compounds read low; DMSO median 0, no signal -100;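 active = significant combined selectivity score with lowered wild-type GFP, culture density cut under 30%, mutant RFP and density less affected; inactive = any of these conditions unmet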; also: one replicate is shown; some compounds called inactive have numbers as strong as hits
Beta2AR agonist – activates human beta-2 adrenergic receptor causing internalization; response, % (concentration not given with the values); AID 504454; 340,000 tested, 0.43% active; P07550; Am2.2-beta2AR cells, FAP receptor internalization, flow cytometry; reference of the scale not given here;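 active = response above a set limit, near 3 SD of response in nonfluorescent compounds, cut at about 42% in these data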;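 also: stock transfer was 100 nL into about 11 µL; a reference agonist was the positive control; negative values mostly stem from fluorescent compounds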
Calb FLC – C. albicans growth modulation with fluconazole; C. albicans CaCi-2 (fluconazole-resistant clinical isolate) + fluconazole, Alamar Blue growth, 48 h; growth inhibition, % (no concentration beside the values); 300,000 tested, 0.57% active; AID 1979;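 active = most replicates above 75%; inconclusive = exactly half above 75%; inactive = most below 75%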;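 also: all wells also contain fluconazole at 8 µg/ml as a sub-toxic cotreatment; 0% = median of DMSO wells and 100% = median of geldanamycin control wells; wells of about 8 µL received 7.5 nL stock; the first replicate is given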
T cruzi inh – T. cruzi replication inhibition; inhibition, % (concentration not given with the values); 300,000 tested, 1.4% active; T. cruzi beta-gal in NIH3T3, luminescence, 90 h;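 active = mean inhibition across valid replicates above about 55%, limit read from the data; inconclusive = mean below that limit but half or more replicates reach it; inactive = mean below it, under half of replicates reach it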;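 also: signal also drops with host cell toxicity which is not excluded here; 0% = plate median of DMSO wells and 100% = zero luminescence signal; higher percent means less beta-gal luminescence so fewer parasites; stock transfer was 50 nL into about 50 µL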
A1 inh – inhibitors of the anti-apoptotic protein A1, read as caspase activation; AID 2462; caspase activation, % (test concentration not listed); 330,000 tested, 0.066% active; MEF A1-2A-BIM cells, Caspase-Glo 3/7 luminescence, 3 h; percent of clofoctol response, vehicle zero;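 active = over half of replicate activation scores above 10%, or exactly half above 10 with the replicate mean above 10; inconclusive = replicate mean below 10 yet half the replicates above 10; inactive = over half of replicates below 10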;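 also: wells of about 30 µL received 50 nL stock; many hits fall short of the cut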
ALR H2O2 inh – inhibitors of human sulfhydryl oxidase ALR. 290,000 tested, 3.8% active. inhibition, % (test concentration not listed). purified ALR, DTT oxidation, H2O2 HRP-luminol luminescence;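 active = mean and each replicate at 75% or more; inconclusive = only one of the two met; inactive = neither met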;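 also: stock transfer was 7.5 nL into about 7.5 µL; 0% = neutral wells and 100% = wells with inactivated enzyme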
LANA-H2B inh – blocks KSHV LANA binding to histone H2A/H2B; Q9QR71; cell-free LANA-H2A/H2B peptide, fluorescence polarization; inhibition, % (test concentration not listed); 320,000 tested, 0.6% active; in the data active = inhibition mostly above about 10%, no sharp cut-off; inactive = mostly below about 6.7%;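 also: stock transfer was 7.5 nL into about 10 µL; 0% = median of vehicle wells and 100% = median of positive control wells; one replicate is shown; the record names a cut of 25% in any replicate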
Target sequence (Q9QR71 whole entry, looked up): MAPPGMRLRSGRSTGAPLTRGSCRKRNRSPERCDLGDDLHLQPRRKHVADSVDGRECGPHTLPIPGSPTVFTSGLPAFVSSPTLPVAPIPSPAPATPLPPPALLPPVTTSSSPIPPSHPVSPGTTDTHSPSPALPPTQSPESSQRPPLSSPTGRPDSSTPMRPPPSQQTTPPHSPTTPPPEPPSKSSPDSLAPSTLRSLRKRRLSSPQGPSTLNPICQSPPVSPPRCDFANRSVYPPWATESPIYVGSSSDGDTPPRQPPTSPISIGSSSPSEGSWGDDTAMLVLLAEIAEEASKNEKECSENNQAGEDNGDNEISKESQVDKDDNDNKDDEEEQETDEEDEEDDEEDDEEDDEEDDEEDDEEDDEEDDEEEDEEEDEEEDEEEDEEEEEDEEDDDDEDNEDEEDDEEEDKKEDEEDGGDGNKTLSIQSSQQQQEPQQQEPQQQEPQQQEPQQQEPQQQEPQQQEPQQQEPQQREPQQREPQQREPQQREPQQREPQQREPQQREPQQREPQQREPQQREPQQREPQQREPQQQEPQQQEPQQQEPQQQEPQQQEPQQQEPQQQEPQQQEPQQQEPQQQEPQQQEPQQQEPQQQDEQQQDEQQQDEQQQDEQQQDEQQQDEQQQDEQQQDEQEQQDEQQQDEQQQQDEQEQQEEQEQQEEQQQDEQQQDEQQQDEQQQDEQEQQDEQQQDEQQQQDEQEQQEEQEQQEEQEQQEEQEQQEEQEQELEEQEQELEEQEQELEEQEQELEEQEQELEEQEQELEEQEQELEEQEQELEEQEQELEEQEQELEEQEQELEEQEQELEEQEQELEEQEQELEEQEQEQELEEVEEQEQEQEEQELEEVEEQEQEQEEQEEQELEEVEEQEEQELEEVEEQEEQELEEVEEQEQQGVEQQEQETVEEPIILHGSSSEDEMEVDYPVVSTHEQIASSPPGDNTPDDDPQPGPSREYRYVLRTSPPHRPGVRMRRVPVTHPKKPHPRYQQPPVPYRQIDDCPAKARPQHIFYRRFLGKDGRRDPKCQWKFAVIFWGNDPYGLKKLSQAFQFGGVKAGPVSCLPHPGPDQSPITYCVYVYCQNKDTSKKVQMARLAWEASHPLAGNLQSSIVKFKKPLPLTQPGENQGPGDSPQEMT
Beta apoptosis – blocks beta cell apoptosis; INS-1E cytokine-induced death, ATP luminescence, 48 h; percent of positive-control rescue, neutral wells zero; protection from apoptosis, % (concentration not given with the values); 300,000 tested, 0.8% active;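 active = all replicates at 75% or more, or half of them and the mean; inconclusive = half reach 75% but not the mean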;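 also: 0% = cytokine-treated negative control wells and 100% = positive control rescue; higher means more ATP so stronger rescue from cytokine killing; wells of about 40 µL received 100 nL stock; the first replicate is given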
rRNA inh HTS OD600 – further read-out of rRNA inh HTS, marked with its call; OD600 change, %; measured here: OD600 growth;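 optical density of the mix in the first replicate; 0 = DMSO median and -100 = no signal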
rRNA inh HTS RFP – recorded beside rRNA inh HTS, whose call it bears; RFP signal change, %; measured here: RFP humanized mutant strains;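 first replicate; 0 = DMSO median and -100 = no signal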
* hit, by the source's call. Not all compounds are listed; the hit share may differ from the screen's.

`CCCCn1c(N)c(N(CCC(C)C)C(=O)CSc2nnc(Nc3ccccc3)s2)c(=O)[nH]c1=O` gave rRNA inh HTS 1, Beta2AR agonist -3, Calb FLC 19, T cruzi inh 8, A1 inh 0.8, ALR H2O2 inh -14, LANA-H2B inh -1.1, Beta apoptosis 5, rRNA inh HTS OD600 5 and rRNA inh HTS RFP -4.0.
CCCCn1c(SCC(=O)N2CCCc3ccccc32)nc2c1c(=O)n(C)c(=O)n2C was read as rRNA inh HTS 7, Beta2AR agonist -6, Calb FLC 9, T cruzi inh 22, A1 inh 0.1, ALR H2O2 inh 1, LANA-H2B inh 2.8, Beta apoptosis 9, rRNA inh HTS OD600 3 and rRNA inh HTS RFP -8.0.
`Cc1ccc2ccc(C(Nc3ccccn3)c3ccccc3)c(O)c2n1` (stereo unspecified) gave rRNA inh HTS -19, Beta2AR agonist 6, Calb FLC -5, T cruzi inh 44, rRNA inh HTS OD600 -22 and rRNA inh HTS RFP -1.8.
`COc1ccccc1-c1ccc(SCc2cccc(F)c2)nn1` gave rRNA inh HTS -30*, Beta2AR agonist 0, Calb FLC -22, T cruzi inh 1, A1 inh 0.3, ALR H2O2 inh -4, LANA-H2B inh -1.4, Beta apoptosis -1, rRNA inh HTS OD600 4.6* and rRNA inh HTS RFP -4.1*.
For Cc1ccc(NCc2n[nH]c(=S)n2-c2ccccc2)c(C)c1 the results were rRNA inh HTS -7, Beta2AR agonist 3, Calb FLC -3, T cruzi inh -11, A1 inh 1.1, ALR H2O2 inh 98*, LANA-H2B inh 2.9, Beta apoptosis -4, rRNA inh HTS OD600 -8 and rRNA inh HTS RFP 1.0.
For COc1ccc(S(=O)(=O)N(C)CC(=O)NCc2cccnc2)cc1Cl the results were rRNA inh HTS 7, Beta2AR agonist 5, Calb FLC -2, T cruzi inh -17, A1 inh 0.0, ALR H2O2 inh -7, LANA-H2B inh 3.7, Beta apoptosis -4, rRNA inh HTS OD600 10 and rRNA inh HTS RFP -4.8.
For Cn1cccc1/C=N/n1c(-c2ccc(Cl)cc2)n[nH]c1=S the results were Beta2AR agonist 0, Calb FLC -4, T cruzi inh -32, A1 inh 0.1, ALR H2O2 inh -7, LANA-H2B inh -3.7 and Beta apoptosis -2.
For COc1ccc(NC(=O)CCC(=O)N/N=C/c2ccncc2)cc1 the results were rRNA inh HTS -4, Beta2AR agonist -2, Calb FLC 4, T cruzi inh -11, A1 inh 0.6, ALR H2O2 inh -10, LANA-H2B inh 4.1, Beta apoptosis -5, rRNA inh HTS OD600 1 and rRNA inh HTS RFP -1.7.
`O=C1CCc2cc(S(=O)(=O)N3CCCCC3)cc3c2N1CC3` gave rRNA inh HTS 1, Beta2AR agonist -2, Calb FLC 3, T cruzi inh 1, A1 inh 0.2, ALR H2O2 inh 0, LANA-H2B inh 2.0, Beta apoptosis -1, rRNA inh HTS OD600 5 and rRNA inh HTS RFP 0.8.
Screening Cc1n[nH]c(C)c1CCC(=O)N/N=C/c1c(C)[nH]c2ccccc12 returned rRNA inh HTS -19, Beta2AR agonist 11, Calb FLC 7, T cruzi inh -14, A1 inh -0.1, LANA-H2B inh -5.1, Beta apoptosis -4, rRNA inh HTS OD600 -15 and rRNA inh HTS RFP 1.0.
`CCn1c(CCNC(=O)c2ccc(C)cc2)n[nH]c1=S` gave Beta2AR agonist 6, Calb FLC -8, T cruzi inh -13, A1 inh 0.3, ALR H2O2 inh 1, LANA-H2B inh 3.4 and Beta apoptosis -2.
`O=C(CCS(=O)(=O)c1cccc2nonc12)NC1CCCCCC1` gave Beta2AR agonist 8, Calb FLC -13, T cruzi inh -4, A1 inh -0.4, ALR H2O2 inh -3 and LANA-H2B inh 0.6.
`Cc1ccc(C(=O)N/C(=C/C=C\c2ccccc2)C(=O)NCc2ccco2)cc1` gave rRNA inh HTS -9, Beta2AR agonist -1, Calb FLC -4, T cruzi inh 7, A1 inh -1.7, ALR H2O2 inh 4, LANA-H2B inh -4.8, Beta apoptosis 5, rRNA inh HTS OD600 -10 and rRNA inh HTS RFP -2.0.
For CCCCN(C(=O)c1cc(OC)c(OC)c(OC)c1)C1=CC2CCC(C1)N2C (stereo unspecified) the results were Beta2AR agonist -1, Calb FLC -8, T cruzi inh -2, A1 inh -0.4, ALR H2O2 inh -4, LANA-H2B inh -0.9 and Beta apoptosis 2.
Screening C=CCn1c(N)cc(=O)nc1SC(C)C(=O)Nc1ccc(C(=O)OCC)cc1 (stereo unspecified) returned rRNA inh HTS -4, Beta2AR agonist 3, Calb FLC 9, T cruzi inh -9, A1 inh -1.0, ALR H2O2 inh -3, LANA-H2B inh 6.5, Beta apoptosis -1, rRNA inh HTS OD600 -12 and rRNA inh HTS RFP 0.1.
Screening Cc1ccc(S(=O)(=O)N(C)C)cc1NC(=O)c1cc(-c2ccncc2)nc2ccccc12 returned rRNA inh HTS -3, Beta2AR agonist 3, A1 inh -0.5, ALR H2O2 inh -8, LANA-H2B inh 2.6, Beta apoptosis 5, rRNA inh HTS OD600 -4 and rRNA inh HTS RFP 2.3.
`CCCn1c(SCC(=O)Nc2cccc(C)n2)nnc1C(C)C` gave rRNA inh HTS 29, Beta2AR agonist 5, Calb FLC -4, T cruzi inh -15, A1 inh 0.2, ALR H2O2 inh -4, LANA-H2B inh -12, rRNA inh HTS OD600 21 and rRNA inh HTS RFP 1.7.
For Cc1ccccc1OCC(=O)Nc1ccc(N2CCN(C(=O)C(C)C)CC2)c(Cl)c1 the results were Beta2AR agonist 15, Calb FLC 21, T cruzi inh 30, A1 inh 0.9, ALR H2O2 inh -5, LANA-H2B inh -6.4 and Beta apoptosis 9.
For O=c1c2c3c(sc2ncn1Cc1ccc(F)cc1)CCC3 the results were Beta2AR agonist -7, Calb FLC 1, T cruzi inh -7, A1 inh -0.8, ALR H2O2 inh 8, LANA-H2B inh -1.8 and Beta apoptosis -1.
For O=C(NNC(=O)c1ccccc1O)c1ccc(S(=O)(=O)Nc2ccccc2)cc1 the results were rRNA inh HTS -5, Beta2AR agonist -1, Calb FLC -3, T cruzi inh -6, A1 inh 0.6, ALR H2O2 inh 24, LANA-H2B inh -9.9, Beta apoptosis 13, rRNA inh HTS OD600 -30 and rRNA inh HTS RFP -5.1.
O=C(Nc1c(C(=O)O)[nH]c2ccccc12)NC1CCCCC1 was read as Beta2AR agonist 1, Calb FLC 10, T cruzi inh 0, A1 inh -0.6, ALR H2O2 inh 98*, LANA-H2B inh 0.8 and Beta apoptosis -5.
`Nc1cc(CN2C(=O)c3ccccc3C2=O)cc(Cl)c1O` gave Beta2AR agonist -12, Calb FLC 22, T cruzi inh -7, A1 inh 0.4, ALR H2O2 inh 38, LANA-H2B inh -2.9 and Beta apoptosis -9.
Nc1c(Cl)cc(C2=NCCn3nc4ccccc4c32)cc1Cl was read as rRNA inh HTS -20*, Beta2AR agonist 2, Calb FLC 56, T cruzi inh -9, A1 inh -0.5, ALR H2O2 inh -8, LANA-H2B inh 2.7, Beta apoptosis -4, rRNA inh HTS OD600 -2.9* and rRNA inh HTS RFP 3.8*.
`CCOC(=O)C1=C(N)OC2=C(C(=O)CC(C)C2)C1c1cccnc1` (stereo unspecified) gave Beta2AR agonist -3, Calb FLC 1, T cruzi inh -8, A1 inh 0.2, ALR H2O2 inh 2, LANA-H2B inh -2.2 and Beta apoptosis -9.
For CC(=O)c1cccc(N=C2NC(=O)CS2)c1 the results were Beta2AR agonist 4, Calb FLC 1, T cruzi inh -14, A1 inh 0.2, ALR H2O2 inh -13, LANA-H2B inh 2.6 and Beta apoptosis -2.
`O=C(Cn1ncc(Cl)c(Cl)c1=O)NCC1CCCCC1` gave Beta2AR agonist 60*, A1 inh 10*, ALR H2O2 inh 95*, LANA-H2B inh -3.6 and Beta apoptosis -8.
For CC(C)(C)c1[nH]nc2c1C(c1ccc(OC(=O)c3ccco3)cc1)C(C#N)=C(N)O2 (stereo unspecified) the results were Beta2AR agonist 1, Calb FLC -3, T cruzi inh -7, A1 inh -0.2, ALR H2O2 inh 0, LANA-H2B inh 6.4 and Beta apoptosis 1.
`Clc1ccc(COc2cccc(CNCc3ccncc3)c2)cc1` gave rRNA inh HTS -34, Beta2AR agonist -2, Calb FLC inconclusive, T cruzi inh 70*, A1 inh 0.5, LANA-H2B inh 2.4, Beta apoptosis 15, rRNA inh HTS OD600 -48 and rRNA inh HTS RFP 2.3.
`O=C(OCC(=O)N1CCC(c2ccccc2)=N1)c1ccc(Cl)s1` gave rRNA inh HTS -4, Beta2AR agonist -1, A1 inh -1.1, LANA-H2B inh 2.0, Beta apoptosis -4, rRNA inh HTS OD600 3 and rRNA inh HTS RFP 2.3.
Screening Cc1ccc(C(=O)Nn2cnnc2)c(Cl)c1 returned rRNA inh HTS 13, Beta2AR agonist 7, Calb FLC 1, T cruzi inh -2, A1 inh 0.6, LANA-H2B inh 0.6, rRNA inh HTS OD600 15 and rRNA inh HTS RFP 0.0.
`CCc1ccc(NC(=O)[C@H](C)NC(=O)C2CCN(C(=O)[C@@H](NC(=O)OC(C)(C)C)C(C)C)CC2)cc1` gave rRNA inh HTS 2, Beta2AR agonist -1, Calb FLC -5, T cruzi inh 1, A1 inh 0.0, ALR H2O2 inh 18, LANA-H2B inh 2.2, Beta apoptosis -5, rRNA inh HTS OD600 5 and rRNA inh HTS RFP 1.8.
For COc1ccc(OC)c(C(c2nnnn2CCc2ccccc2)N2CCN(c3ccccc3)CC2)c1 (stereo unspecified) the results were Beta2AR agonist 3, Calb FLC -5, T cruzi inh 45, A1 inh -0.2, ALR H2O2 inh -14, LANA-H2B inh -3.6 and Beta apoptosis 4.
For Cc1ccc(-c2nc(NCc3ccco3)n(C(=O)c3ccco3)n2)cc1 the results were rRNA inh HTS 5, Beta2AR agonist 6, Calb FLC 7, T cruzi inh -2, A1 inh -0.3, LANA-H2B inh 0.3, Beta apoptosis -5, rRNA inh HTS OD600 8 and rRNA inh HTS RFP 3.2.
Screening CC(C)(C)NC(=O)C(=O)NCc1ccccn1 returned rRNA inh HTS 15, Beta2AR agonist -2, Calb FLC 6, T cruzi inh -7, A1 inh 1.9, ALR H2O2 inh -15, LANA-H2B inh -1.6, Beta apoptosis -6, rRNA inh HTS OD600 14 and rRNA inh HTS RFP 0.6.
`Cn1cnnc1SCC(=O)c1c(N)n(Cc2ccccc2)c(=O)n(C)c1=O` gave rRNA inh HTS 5, Beta2AR agonist -2, Calb FLC -12, T cruzi inh -14, A1 inh 1.1, ALR H2O2 inh -7, LANA-H2B inh 8.2, rRNA inh HTS OD600 8 and rRNA inh HTS RFP 2.1.
